Assay outcomes from PubChem BioAssay.
gsp agonist = qHTS for Agonist of gsp, the Etiologic Mutation Responsible for Fibrous Dysplasia/McCune-Albright Syndrome: qHTS | gsp mutant cells, cAMP HTRF, 30 min; control for the full effect not named in the record | Potency, µM (doses to about 76.9 µM), for the others: at the top dose activation (cAMP increase), actives largely listed as activators | 340,000 tested, 0.13% active; active = well fitted activation curve with a large enough effect; inconclusive = small, poorly fitted or top-dose-only effect, or another doubt; inactive = no such curve, though single readings can be large or run the other way; cell line not stated here;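 note: phosphodiesterase inhibitor Ro 20-1724 added with compounds to block cAMP breakdown; potency is the fitted concentration of half-maximal effect; nearly all actives have a fitted effect of over 60% in size; about a fifth of the inactives were tested at one dose only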
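Cells in DMEM/10% FBS with G418 were pretreated with compounds in DMSO plus […] (300 uM stock) for 30 min at 37C. cAMP was measured by HTRF (cAMP-d2 plus anti-cAMP antibody-K) after 30 min at room temperature.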
TRPML1 blocker = qHTS for Inhibitors of the Human Mucolipin Transient Receptor Potential 1 (TRPML1). Mucolipin-1 (Homo sapiens), Q9GZU1. TRPML1-inducible cells, Ca2+ dye fluorescence, FDSS; hits give low values; inhibition of EC80 agonist-evoked calcium signal. activity change, negative = inhibition, % (no concentration beside the values). 390,000 tested, 0.02% active; in the data active means activity change below about -50%; inconclusive means about -30% to -50%; inactive means above about -30%;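 note: stimulus is agonist 54-4 at its EC80 concentration; % is set by controls: 0 for no effect and ±100 for the full control effect; compound concentration not given in the record; the text of the record puts the active cut at -80%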
Target sequence (Q9GZU1 whole entry, looked up): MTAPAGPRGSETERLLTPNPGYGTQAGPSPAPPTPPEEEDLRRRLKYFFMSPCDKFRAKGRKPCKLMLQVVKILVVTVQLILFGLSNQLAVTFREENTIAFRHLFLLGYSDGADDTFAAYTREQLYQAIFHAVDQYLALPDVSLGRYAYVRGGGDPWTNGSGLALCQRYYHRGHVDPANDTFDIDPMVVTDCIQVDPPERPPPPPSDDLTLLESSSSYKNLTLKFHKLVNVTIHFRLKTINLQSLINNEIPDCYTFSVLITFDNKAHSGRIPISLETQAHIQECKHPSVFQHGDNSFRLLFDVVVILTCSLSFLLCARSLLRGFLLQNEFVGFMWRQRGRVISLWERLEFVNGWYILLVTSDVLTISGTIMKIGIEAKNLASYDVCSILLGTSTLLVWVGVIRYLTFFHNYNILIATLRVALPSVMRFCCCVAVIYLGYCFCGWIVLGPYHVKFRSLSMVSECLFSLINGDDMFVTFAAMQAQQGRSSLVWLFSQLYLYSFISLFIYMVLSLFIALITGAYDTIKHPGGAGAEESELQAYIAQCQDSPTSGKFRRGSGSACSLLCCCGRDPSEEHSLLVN
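TRPML1-DL cells, Tet-induced overnight (~16 h, 37 °C) at 1,500 cells/well, were loaded with Ca8 no-wash dye plus quencher for 45-90 min at room temperature. Compounds were pinned during FDSS kinetic reading; agonist 54-4 at EC80 (4 uM final) then added.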
gsp antagonist = qHTS for Antagonists of gsp, the Etiologic Mutation Responsible for Fibrous Dysplasia/McCune-Albright Syndrome: qHTS | 340,000 tested, 0.4% active | Potency, µM (doses to about 76.9 µM), without a hit: at the top dose activity change, negative = inhibition, actives largely listed as inhibitors | gsp-mutant cells, cAMP HTRF, 30 min; control for the full effect not named in the record; active = falling curve of any shape with a large fitted effect; inconclusive = falling curve, mostly with a smaller effect; inactive = flat or rising curve; cell line not stated here;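 note: intracellular cAMP measured with PDE inhibitor Ro 20-1724 present during compound exposure; potency is the fitted concentration of half-maximal effect; % is set by controls: 0 for no effect and ±100 for the full control effect; nearly all actives have a fitted effect of over 65% in size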
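Cells, 2000/well, grown 16–24 h in DMEM 10% FBS with 0.5 mg/ml G418, then compounds plus […] (300 uM addition stock), 30 min at 37C. cAMP read by HTRF (cAMP-d2 and anti-cAMP antibody-K in lysis buffer) after 30 min RT.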
Menin-MLL FL inh = qHTS Assay for Inhibitors Targeting the Menin-MLL Interaction in MLL Related Leukemias: Competition With Fluorescein Labeled MLL-derived Peptide. AID 1766, 2009. 290,000 tested, under 10 active. Fluorescence polarization, fluorescein-MLL peptide displacement from menin. FP activity change, % at 61.4 µM; inconclusive = falling polarisation curve, or a change in total fluorescence; inactive = total fluorescence flat and polarisation flat or rising; no compound was filed as active; the % refers to the polarisation; negative = inhibition;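 note: % of control where 0% means no effect; inhibitors lower the polarisation; unlabelled MLL peptide was the positive control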
TRPML1 agonist = qHTS for Agonists of the Human Mucolipin Transient Receptor Potential 1 (TRPML1); activation, % (concentration not given with the values); Mucolipin-1 (Homo sapiens), Q9GZU1; 410,000 tested, 0.12% active; TRPML1-expressing cells, Ca2+ dye fluorescence, FDSS; host cell line not named in the record; reference of the full effect not given here; AID 624414, 2012; in the data active = activation above about 50%; inconclusive = about 30% to 50%; inactive = below about 30%; note: 0% is about no effect; the text of the record puts the active cut at 80%
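Tetracycline-induced TRPML1-DL cells are seeded and incubated overnight before loading with a no-wash Ca2+ dye and quencher. Agonist activity is taken from the 110 s fluorescence read following compound pin-transfer on an FDSS, before EC80 54-4 challenge.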
ClpP mod = qHTS Assay for Activators of ClpP | purified B. subtilis ClpP, FRET peptide cleavage, 20 min | Potency, µM (top dose mostly 57.5 µM), for the others: at the highest dose activity change, negative = active | 340,000 tested, 1.9% active; active = well fitted falling curve with a large enough effect; inconclusive = small, poorly fitted or top-dose-only effect; inactive = no such curve, though single readings can be large or run the other way; note: potency is the fitted concentration of half-maximal effect; the source files actives as falling curves though it sought activators and does not explain the sign; nearly all actives have a fitted effect of over 65% in size; many hits overshoot -100%
Target sequence (P80244 whole entry, looked up): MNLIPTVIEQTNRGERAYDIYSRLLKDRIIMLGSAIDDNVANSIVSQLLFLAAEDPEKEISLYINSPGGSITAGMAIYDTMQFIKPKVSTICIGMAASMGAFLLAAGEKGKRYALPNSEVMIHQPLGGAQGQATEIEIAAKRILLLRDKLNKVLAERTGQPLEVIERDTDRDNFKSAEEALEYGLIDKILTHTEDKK
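FRET quenching reversal measured ClpP activation: 10 microg/mL B. subtilis ClpP at pH 8 with the FRET-FV decapeptide, read at 430 nm after 320 nm excitation. The 20-min minus 0-min signal was scaled between DMSO/no-enzyme wells and ADEP (5.8 microM final).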
Starred values were filed as active, the others as inactive; ? = inconclusive; · = no result given; & = joins results of further samples; [ ] = dose if it differs, or a comment.

mol | gsp agonist | TRPML1 blocker | gsp antagonist | Menin-MLL FL inh | TRPML1 agonist | ClpP mod
COc1ccc(S(=O)(=O)N2CCOC2CNC(=O)C(=O)NCCc2ccc(OC)c(OC)c2)cc1C (centres undefined) | ? | 1.7 | -21.1% | 5.9 | 1.8 | -1.3%
COc1ccc2cc(CNc3ccccc3)c(=O)n(CC(=O)Nc3ccc(C(C)=O)cc3)c2c1 | · | -9.9 | · | · | 2.6 | 0.1%
Cc1ccc(C)c(SCC(=O)NC(=O)Nc2ccc3c(c2)OCCO3)c1 | 4.6% | 12.8 | -3.0% | -1.5 | -0.7 | -2.0%
CCN(CC)c1ccc(C2C3CCCCC3(O)CCN2CC(=O)N2CCCCC2)cc1 (centres undefined) | -29.6% | -4.3 | 6.5% | 4.4 | -0.9 | -1.0%
O=C(Nc1ncnc2sc3c(c12)CCCCC3)c1ccc(F)cc1 | -12.9% | -2.5 | -16.2% | 4.7 | 2.3 | 0.5%
COc1ccc(C(c2nnnn2C2CCCCC2)N2CCN(C)CC2)c(OC)c1 (centres undefined) | 8.8%[15.4 µM] | 3.6 | 10.6% | -1.8 | -0.3 | 0.3%
C/C(=N\NC(=O)c1c(C)nc2ccccn12)c1cccc([N+](=O)[O-])c1 | 3.3%[15.4 µM] | -12.2 | -2.3% | 2.8 | 1.8 | ·
CCC(=O)N1CCc2cc(Br)cc(S(=O)(=O)CCC(=O)Nc3cccc(CC)c3)c21 | · | -2.4 | · | · | -0.5 | 2.9%
CS(=O)(=O)N(CC(=O)O)c1ccc2c(c1)OCO2 | -0.3% | -15.8 | 7.5% | 0.2 | -0.5 | -0.2%
CCOc1ccc(-n2c(SCC(N)=O)nc3sc4c(c3c2=O)CCN(C)C4)cc1 | -4.9%[15.4 µM] | -12.9 | 7.4% | 7.2 | -0.7 | 0.8%
Oc1ccccc1C=NNC(=S)NN=Cc1ccccc1O | -23.2% | -5.0 | ? | · | 2.3 | ·
COc1ccc(Cl)cc1NC(=O)C1Cc2ccccc2CN1S(C)(=O)=O (centres undefined) | -21.9% | 2.3 | 2.4% | -0.3 | -0.4 | ·
COc1ccc(Nc2nc(-c3cccs3)nc3ccccc23)c(OC)c1 | -2.4% | 13.4 | -19.6% | 0.6 | 2.9 | -4.5%
Cc1c(OCC(=O)NCCCn2ccnc2)ccc2c3c(c(=O)oc12)CCC3 | 3.4% | 7.7 | -11.4% | · | -0.7 | 4.2%
CCC(C)n1[nH]c(=O)c2c(C)cc(C)nc21 (centres undefined) | -13.3% | 5.4 | 7.8% | 6.1 | 0.0 | 1.2%
CC(C)N(Cc1cc2ccccc2[nH]c1=O)C(=O)C(C)(C)C | ? | 1.0 | -4.2% | -1.2 | 0.1 | -18.6%
O=C(CSc1nccn1-c1ccccc1)Nc1ccc2c(c1)OCO2 | 1.5% | -16.7 | -4.9% | 0.5 | 2.5 | -2.3%
O=C(CNC(=O)c1ccc(Cl)cc1)OCc1cc(=O)n2ccsc2n1 | · | -3.1 | · | · | -0.7 | -22.5%
COc1ccc(C(=O)O)cc1S(=O)(=O)NC(C)(C)C | 0.4% | · | -21.5% | 2.4 | · | -0.7%
OCCN(Cc1ccccc1)CC(O)COc1ccc(-c2ccccc2)cc1 (centres undefined) | 25.0% | -13.9 | -2.9% | 3.4 | 1.6 | 1.5%
COc1ccc(OC)c(N(CC(=O)NC2CC2)S(=O)(=O)c2ccc(C)cc2)c1 | -4.5% | -7.4 | -0.4% | 1.3 | -0.5 | -0.2%
Cc1ccc(-c2csc(Nc3ccccc3)[n+]2CCc2ccccc2)cc1 | -3.6% | 19.1 | -6.9% | 4.8 | -0.6 | 0.0%
Cc1nnc(N2CCCC(C(=O)NCc3ccccc3)C2)c2nn(-c3ccccc3)c(C)c12 (centres undefined) | · | -16.1 | · | · | 2.2 | -26.3%
Cc1cc(C(=O)N/N=C/c2c(C)nn(-c3ccccc3)c2C)n[nH]1 | 11.9% | -11.6 | -10.3% | 0.0 | 0.1 | ·
CC(C)CCN(CC(=O)NC1CCCC1)C(=O)C(=O)Nc1ccc2c(c1)OCCO2 | -18.1%[15.4 µM] | 16.1 | · | -2.9 | -0.1 | ·
Cc1ccc2ccc3cccc4ccc1c2c34 | · | 4.8 | -1.3% | · | -0.6 | 3.9%
C=CCC[C@@H](Cc1ccc(F)cc1)C(=O)OC[C@@H](NC(=O)[C@@H](CC=C)CC(=O)N[C@H](CO)Cc1ccccc1)C(C)(C)C | -15.8% | -1.3 | -9.0% | · | 2.8 | 1.9%
Cc1nc(C(=O)NNC(=O)c2c(-c3c(Cl)cccc3Cl)noc2C)cs1 | -1.5%[15.4 µM] | 11.2 | 9.7% | -1.3 | 0.2 | -4.3%
CCCCOc1ccc(C(=O)C(CN2CCOCC2)c2ccccc2)cc1 (centres undefined) | -2.8% | -2.7 | -2.6% | 5.5 | -1.2 | 0.8%
O=c1c2c(nc3cc(-c4ccc(Br)cc4)[nH]n13)CCCC2 | -7.6%[15.4 µM] | 15.7 | -13.0% | 0.8 | 1.5 | ·
CCOC(=O)c1ccc(NC(=O)c2nc[nH]c2C(=O)NCC(=O)OC(C)(C)C)cc1 | · | -8.8 | -22.1% | 3.6 | 2.0 | ?
CCOC(=O)C(CC)Sc1nc2c(cnn2-c2ccccc2)c(=O)[nH]1 (centres undefined) | -22.7% | 60.6 | 3.9% | 3.1 | 2.0 | -1.4%
O=C(C1CCCN(Cc2cc(Br)ccc2O)C1)N1CCCCC1 (centres undefined) | -12.6%[15.4 µM] | 12.7 | 15.4% | -7.1 | -0.9 | 2.2%
Oc1ccccc1-c1nc(/C=C/c2ccccc2)nn1-c1ccccc1 | -8.1% | -8.6&3.9 | -11.6% | 6.1 | -0.1&1.5 | ?
COc1ccccc1-c1nc(C#N)c(N2CCN(Cc3ccccc3)CC2)o1 | 7.4% | -1.4 | -10.9% | 0.6 | -1.3 | 28.2µM*
O=C(CNC(=O)c1ccccc1F)Nc1ccncc1 | -1.0%[15.4 µM] | 11.0 | 2.6% | · | -0.3 | ·
CCCc1cc(=O)[nH]c(SCC(=O)N2CCOCC2)n1 | -1.0%[15.4 µM] | -4.0 | 2.0% | 0.3 | 0.7 | ·
Cc1ccc(Cn2nnnc2CN2CCC(NC(=O)c3ccc(Br)cc3)CC2)cc1 | 1.5% | 24.4 | -32.7% | -0.4 | 1.0 | 0.8%
Nc1cc(-c2ccccc2)nn1Cc1ccc(Cl)cc1 | 5.9% | -8.0 | -6.2% | -5.2 | -0.7 | -9.4%
CCC(CC)c1nnc(NC(=O)c2c(C)nn(Cc3ccccc3Cl)c2C)s1 | 9.4% | 43.2 | -4.8% | 1.7 | 4.0 | 0.7%
CC(C)(C)C(=O)NC1=NN(c2c(Cl)cc(Cl)cc2Cl)C(=O)C1 | 2.1% | 12.8 | -8.5% | -1.3 | -0.1 | -0.3%
CCCCNC(=O)OCCSCCS(=O)(=O)c1ccc(Cl)cc1 | -0.9%[15.4 µM] | -4.2 | 6.7% | 2.2 | -0.6 | 0.4%
COc1cccc(NC(=O)Cn2c(=O)n(CCC(=O)NCc3ccccc3OC)c(=O)c3ccccc32)c1 | · | 26.4 | · | · | 0.0 | -3.3%
CCn1c(SCC(=O)NCc2ccco2)nnc1-c1c[nH]c2ccccc12 | -67.9%[inhibitor] | 14.1 | -6.3% | 3.8 | 2.6 | -2.5%
Cc1ccc(-c2noc(-c3ccc(N4CCCCC4)c([N+](=O)[O-])c3)n2)cc1 | · | -19.2 | · | · | -0.3 | -1.1%
Brc1cccc(-c2nnc3sc(CNC4CCCC4)cn23)c1 | -2.6% | 6.1 | -0.4% | -0.4 | -0.6 | 0.7%
CS(=O)(=O)N1CCC(C(=O)N2CCN(c3ccccc3F)CC2)CC1 | 15.8%[15.4 µM] | 36.1 | -1.7% | -0.1 | -0.4 | ·
CNc1nnc(SCC(=O)c2c(N)n(C3CC3)c(=O)[nH]c2=O)s1 | -12.9%[15.4 µM] | 16.2 | 9.7% | · | 0.5 | ·
CN(C(=O)C1CCN(S(=O)(=O)c2ccccc2)CC1)c1c(N)n(Cc2ccccc2)c(=O)[nH]c1=O | 6.5% | 6.8 | 4.2% | · | 0.2 | 0.9%
O=C(NCC(c1cccs1)S(=O)(=O)c1ccccc1)c1ccc(C(F)(F)F)cc1 (centres undefined) | · | 15.8 | · | · | 1.9 | 0.0%

(listing goes on)
mol | gsp agonist | TRPML1 blocker | gsp antagonist | Menin-MLL FL inh | TRPML1 agonist | ClpP mod
Cc1cc(Cl)ccc1NC(=O)COC(=O)c1c(C)noc1C | -24.8% | -3.9 | 6.4% | · | -0.9 | 0.9%
OCCN1CCN(C(c2ccc(Cl)cc2Cl)c2sc3nc(-c4ccco4)nn3c2O)CC1 (centres undefined) | · | -4.4 | · | · | 2.3 | 2.7%
Nc1ncc([N+](=O)[O-])c(Oc2ccccc2F)n1 | -3.6% | · | -3.3% | 3.2 | · | 0.0%
CCOC(=O)C1CCN(CC(=O)Nc2c(C(=O)OC)n(C)c3cccc(C)c23)CC1 | 2.7% | 14.3 | -7.3% | -0.8 | 0.4 | -3.5%
C#C[C@]1(O)CC[C@H]2[C@@H]3CCC4=C(CCC(=O)C4)[C@H]3CC[C@@]21C | · | -5.3 | -2.6% | -0.4 | -0.4 | 0.5%
